# gsp ag = gsp mutant agonism; gsp mutant cells, cAMP HTRF, 30 min; control for the full effect not named in the record; Potency, µM (doses to about 76.9 µM), for the others: at the top dose activation (cAMP increase), most hits filed as activators; 340,000 compounds, 0.13% hits; AID 624287; active = well fitted activation curve with a large enough effect; inconclusive = small, poorly fitted or top-dose-only effect, or another doubt; inactive = no such curve, though single readings can be large or run the other way; cell line not stated here;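 also: phosphodiesterase inhibitor Ro 20-1724 added with compounds to block cAMP breakdown; potency is read from the fitted curve at half-maximal effect; nearly all actives have a fitted effect of over 60% in size; about a fifth of the inactives were tested at one dose only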
#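 Cells stably selected in G418 were plated at 2000/well, grown 16-24 hr, then given compounds in DMSO with the PDE inhibitor […] (300 uM solution added) for 30 min at 37C; cAMP was read by HTRF.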
# TRPV1 potentiator = enhances activation of the human vanilloid receptor TRPV1; Q8NER1; TRPV1-expressing cells, Fluo-8 calcium influx, capsaicin EC20 potentiation; host cell line not named in the record; control for the full effect not named in the record; potentiation, % at 8.33 µM; 320,000 compounds, 0.02% hits; AID 540277; active means potentiation above 80%; inconclusive means 30% to 80%; inactive means below 30%; also: 0% is about no effect
# Target sequence (Q8NER1 whole entry, looked up): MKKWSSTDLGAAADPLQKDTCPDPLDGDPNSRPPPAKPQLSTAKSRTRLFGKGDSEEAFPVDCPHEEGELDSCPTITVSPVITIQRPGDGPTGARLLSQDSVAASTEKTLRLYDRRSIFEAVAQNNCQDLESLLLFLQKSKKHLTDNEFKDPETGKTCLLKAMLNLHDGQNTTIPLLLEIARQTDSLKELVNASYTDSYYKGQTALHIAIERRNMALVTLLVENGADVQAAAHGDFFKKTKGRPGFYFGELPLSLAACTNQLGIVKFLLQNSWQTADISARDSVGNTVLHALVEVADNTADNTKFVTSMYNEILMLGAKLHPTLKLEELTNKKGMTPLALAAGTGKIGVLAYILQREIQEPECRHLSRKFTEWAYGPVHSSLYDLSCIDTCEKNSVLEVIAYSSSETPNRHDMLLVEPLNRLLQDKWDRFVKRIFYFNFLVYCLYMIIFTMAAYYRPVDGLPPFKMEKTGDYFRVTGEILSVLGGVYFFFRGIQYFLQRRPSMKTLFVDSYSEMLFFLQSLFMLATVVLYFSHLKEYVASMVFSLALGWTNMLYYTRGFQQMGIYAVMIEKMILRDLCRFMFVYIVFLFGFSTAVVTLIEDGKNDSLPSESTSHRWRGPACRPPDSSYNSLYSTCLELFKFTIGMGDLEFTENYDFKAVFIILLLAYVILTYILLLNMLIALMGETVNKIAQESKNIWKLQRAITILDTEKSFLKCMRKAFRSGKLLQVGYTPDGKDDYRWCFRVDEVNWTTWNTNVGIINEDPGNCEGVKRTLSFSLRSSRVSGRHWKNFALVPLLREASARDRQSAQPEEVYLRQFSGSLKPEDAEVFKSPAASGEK
#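 Fluo-8 calcium influx in TRPV1-expressing cells, kinetic read (ex 480/em 520 nm). Compound added and read 3 min for agonist activity, followed by capsaicin at EC20 final and 2 min further read for enhancement.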
# Menin MLL FP FL = inhibitors of human menin-MLL interaction, wild-type MLL peptide. 290,000 tested, under 10 active. Fluorescence polarization, fluorescein-MLL peptide displacement from menin. AID 1766. FP activity change, % at 61.4 µM; inconclusive = falling polarisation curve, or a change in total fluorescence; inactive = total fluorescence flat and polarisation flat or rising; no compound was filed as active; the % refers to the polarisation; negative = inhibition;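 also: % of control where 0% means no effect; inhibitors lower the polarisation; unlabelled MLL peptide was the positive control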
# ClpP mod = qHTS Assay for Activators of ClpP | purified B. subtilis ClpP, FRET peptide cleavage, 20 min | Potency, µM (titrated, usually from 57.5 µM), without a hit: at the top dose activity change, negative = active | 340,000 compounds, 1.9% hits | AID 651965, 2013; active = well fitted falling curve with a large enough effect; inconclusive = small, poorly fitted or top-dose-only effect; inactive = no such curve, though single readings can be large or run the other way; also: potency is read from the fitted curve at half-maximal effect; the source files actives as falling curves though it sought activators and does not explain the sign; nearly all actives have a fitted effect of over 65% in size; many hits overshoot -100%
# Target sequence (P80244 whole entry, looked up): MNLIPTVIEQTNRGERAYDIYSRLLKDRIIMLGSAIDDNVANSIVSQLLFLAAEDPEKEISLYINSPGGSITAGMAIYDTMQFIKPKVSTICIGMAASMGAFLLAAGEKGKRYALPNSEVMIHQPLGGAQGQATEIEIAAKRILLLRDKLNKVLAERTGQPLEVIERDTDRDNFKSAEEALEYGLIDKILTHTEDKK
#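 Buffer: 100 mM Tris/HCl pH8, 100 mM KCl, 0.05% low protease BSA, 2.5% glycerol, 0.01% Tween-20. ClpP 10 microg/mL final; 20 min RT; delta FRET normalized to ADEP and DMSO controls.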
# CtBP-E1A blk = blocks the CtBP interaction with E1A | activity change, % (test concentration not listed) | 340,000 compounds, 0.49% hits | AlphaScreen GST-E1A/His-CtBP binding, 1536-well; hits give low values; control for the full effect not named in the record; in the data active means activity change below about -65%; inconclusive means about -30% to -65%; inactive means above about -30%; also: % is scaled to controls: 0 for no effect and ±100 for the full control effect
#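 Steps: dispense buffer (Tris pH 8.0, NaCl 300 mM, TCEP 1 mM, BSA, Tween 20); add 5X protein mix (GST-E1A, His-CtBP, 125 nM each); pin 23 nL compound; 2 h at 37 °C, dark; add 5X beads (50 ug/mL); 1 h; read.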
# gsp antag = gsp mutant antagonism. gsp-mutant cells, cAMP HTRF, 30 min; control for the full effect not named in the record. Potency, µM (highest dose often 76.9 µM), for the others: top-dose activity change, negative = inhibition, hits mostly inhibitors. AID 624288. 340,000 compounds, 0.4% hits; active = falling curve of any shape with a large fitted effect; inconclusive = falling curve, mostly with a smaller effect; inactive = flat or rising curve; cell line not stated here;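 also: intracellular cAMP measured with PDE inhibitor Ro 20-1724 present during compound exposure; potency is read from the fitted curve at half-maximal effect; % is scaled to controls: 0 for no effect and ±100 for the full control effect; nearly all actives have a fitted effect of over 65% in size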
#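 HTRF cAMP read-out (cAMP-d2 plus anti-cAMP antibody-K in lysis buffer, 30 min RT). Before lysis, cells are exposed to compounds with […] for 30 min at 37C in DPBS containing Ca/Mg, BSA and Tween 20.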
# Sfp PPTase inh = blocks B. subtilis Sfp PPTase activity. Biochemical Sfp PPTase activity, qHTS. 310,000 compounds, 3.5% hits. Potency, µM, without a hit: max response, negative = inhibition, usual class: inhibitors. Q9F4F7. AID 1490; active = well fitted inhibition curve with a large enough effect; inconclusive = small, poorly fitted or top-dose-only effect, or another doubt; inactive = no such curve, though single readings can be large or run the other way;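 also: the enzyme is Sfp with the accession as filed and its product quenches rhodamine fluorescence; potency is read from the fitted curve at half-maximal effect; 0% = enzyme reaction without inhibitor and -100% = no enzyme wells; top concentration of the series not given in the record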
#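 Fluorescence-quenching assay with 15 nM Sfp, 5 uM rhodamine-CoA and 12.5 uM BHQ-2-labelled ybbR peptide in pH 7.6 Hepes/MgCl2 buffer. Enzyme was pre-incubated with compound for 15 min at room temperature. Rate was taken from the 30-min fluorescence change (525/598 nm).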
# Active calls of the source: *; ? = inconclusive; . = no result given; & = joins results of further samples; [ ] = remark or other dose.
SMILES,gsp ag,TRPV1 potentiator,Menin MLL FP FL,ClpP mod,CtBP-E1A blk,gsp antag,Sfp PPTase inh
C=CCN1C=CC(=O)[C@@H](OC(=O)Nc2ccc(Br)cc2)[C@H]1c1ccccc1Br,.,.,.,12%,-2,-19%,.
O=C1NC(=O)/C(=C\c2ccccc2OCc2ccc([N+](=O)[O-])cc2)N1,-2%,3,.,0.0%,-4,?,17%
Cc1cnc(NC(=O)CSc2nnc(-c3ccncc3)n2C2CCCCC2)s1,1%,6,4.7,0.6%,6,4%,3%
COc1ccc(CNc2nc(SC)n[nH]2)cc1OC,-7%,1,-2.4,0.5%,17,5%,15%
CCOC(=O)c1c2n(c3ccc(O)cc13)CCCCC2,-5%,?,4.5,?,-11,4%[15.4 µM],-3%
O=C(CON=C1c2ccccc2-c2ccccc21)NC12CC3CC(CC(C3)C1)C2,-40%[inhibitor],11,7.3,-5.3%,17,-17%,-5%
COc1ccc(OC)c(NC(=O)CN(Cc2ccc(Cl)cc2)S(C)(=O)=O)c1,-10%[15.4 µM],9,-0.9,.,-1,-10%,6%
C[C@@H]1CN([C@H](C)CO)C(=O)CCCn2nncc2CO[C@@H]1CN(C)S(=O)(=O)c1cccc(F)c1,?,.,.,-2.0%,-14,.,.
COc1cc(C(=O)NNC(=O)c2ccc3c(c2)OCCO3)cc(OC)c1OC,-3%[15.4 µM],.,.,-0.4%,-3,8%,.
COc1ccc(C(=O)Oc2ccc(C)cc2)cc1S(=O)(=O)N1CCOCC1,-146%[inhibitor],.,.,1.7%,-2,.,.
CCc1ccccc1NC(=O)CNC(=O)CSC(=S)N1CCCC1,-4%,4,.,-0.3%,5,14%,.
CCOc1ccc(-c2n[nH]c(=S)n2/N=C/c2cc3c(cc2[N+](=O)[O-])OCO3)cc1,-34%[15.4 µM],-3,3.2,-3.8%,-1,-9%,?
COc1ccccc1C1CN(c2ccccc2)N=C1c1cccs1 (stereo not given),-2%,0,10,?,10,-1%,-2%
Cc1cc(C)nc(NC(=O)c2cc(Br)ccc2Cl)n1,25%,1,0.5,.,8,-4%,13%
Cc1cc(N2CCN(S(=O)(=O)c3ccc4c(c3)OCCO4)CC2)n2ncnc2n1,7%,19,4.7,-1.6%,0,11%,-1%

# Compound profiles, as listed above.
# Results for Cc1cnc(NC(=O)CSc2nnc(-c3ccncc3)n2C2CCCCC2)s1 = gsp ag = 1%; TRPV1 potentiator = 6; Menin MLL FP FL = 4.7; ClpP mod = 0.6%; CtBP-E1A blk = 6; gsp antag = 4%; Sfp PPTase inh = 3%
# Results for Cc1cc(N2CCN(S(=O)(=O)c3ccc4c(c3)OCCO4)CC2)n2ncnc2n1 = gsp ag = 7%; TRPV1 potentiator = 19; Menin MLL FP FL = 4.7; ClpP mod = -1.6%; CtBP-E1A blk = 0; gsp antag = 11%; Sfp PPTase inh = -1%

# Following part:
SMILES,gsp ag,TRPV1 potentiator,Menin MLL FP FL,ClpP mod,CtBP-E1A blk,gsp antag,Sfp PPTase inh
COC(=O)c1cc(NC(=O)Nc2ccccc2)ccc1Cl,-4%,-21,3.3,0.9%,-3,-17%,16%
O=C(CSc1ncn[nH]1)NCCc1ccc(Cl)cc1,?,3,1.9,.,-20,4%,11%
CC(=O)n1cc([C@H]2C=C(C(=O)N3CCN(Cc4ccc5c(c4)OCO5)CC3)O[C@@H](OCc3ccc(CO)cc3)C2)c2ccccc21,.,-1,1.6,-1.4%,-18,-26%,23%
Cc1cccc(-n2c(SCC(N)=O)nnc2-c2ccccn2)c1C,-43%[inhibitor],3,1.0,-8.3%,-19,12%,10%
O=C(CN1C(=O)NC2(CCCC2)C1=O)Nc1nc2ccccc2s1,-23%,-3,.,0.5%,4,-1%,.
COc1ccc([C@H]2C[C@H](O)[C@@H](n3cc(C4CC4)nn3)CN2Cc2cccs2)cc1,?,.,.,-10%,-6,.,.
COC(=O)c1ccc(S(=O)(=O)c2ccccc2)c(N)c1,-30%[inhibitor],7,2.9,0.6%,14,1%,-11%
COc1ccc(OC)c(S(=O)(=O)N2CCC(C(=O)N3CCN(Cc4ccccc4)CC3)CC2)c1,12%,?,3.1,0.5%,2,-2%,8%
COc1ccc(S(=O)(=O)CCC(=O)N2c3ccccc3CC2C)cc1 (stereo not given),2%,-8,1.0,1.6%,0,-11%,7%
Cc1[nH]n(-c2cccc([N+](=O)[O-])c2)c(=O)c1-c1ccccc1,-49%[inhibitor],10,-5.2,0.0%,.,-8%,20%
CN(CC(=O)N1CCN(Cc2ccccc2)CC1)S(=O)(=O)c1ccc(F)cc1,5%[15.4 µM],-17,-2.0,-3.3%,5,3%,1%
Cc1onc(-c2ccccc2Cl)c1C(=O)Nc1ccc(Cl)cn1,0%,-9,0.3,0.1%,2,-6%,1%
CCCCNC(=O)[C@H]1C[C@H]1[C@@H](O)[C@H](CO)NC(=O)[C@H](Cc1ccccc1)NC(=O)OC(C)(C)C,25%,-7,-5.1,0.6%,6,6%,15%
CCC(=O)N1CCc2nc(-c3ccccc3)sc2C1,6%,7,3.3,3.4%,0,2%,8%
O=C(CN(c1ccc(Cl)c(C(F)(F)F)c1)S(=O)(=O)c1ccccc1)N/N=C/c1cccc2c1OCCO2,2%,15,-2.0,22µM*,-1,?,16%
O=C(CCC1N=C2c3ccccc3N=C(SCc3ccc(F)cc3)N2C1=O)NCc1ccco1 (stereo not given),-8%,6,3.2,?,-5,-27%,?
O=C(CCNS(=O)(=O)c1c(Cl)cccc1Cl)OCC(=O)c1ccccc1,-11%,-9,5.1,1.4%,1,2%,4%
Cc1ccc2nc(NC3=NCN(Cc4ccccc4)CN3)nc(C)c2c1,.,11,3.3,.,.,.,17%
CC(=O)N1N=C(c2cccnc2)OC1c1ccc(C(C)C)cc1 (stereo not given),-23%,13,3.7,.,5,-9%,-4%
Fc1ccc(-c2csc(-c3cccnc3)n2)cc1F,?,3,-0.9,-1.3%,7,-4%,12%
COc1ccc2c(c1)C1CC(C)(NC(=O)C1C(=O)c1ccccc1)O2 (stereo not given),0%,23,-1.0,-1.5%,-7,-2%,13%
CCOC(=O)c1c(O)c2ccccc2oc1=O,18%,.,-0.5,-8.5%,0,8%,12%
O=C(NC1CCCC1)C(c1ccccc1F)N(C(=O)c1csnn1)C1CC1 (stereo not given),30%,25,-1.7,.,-7,-1%,10%
O=C(c1cccnc1)N1N=C(C2CC2)CC1(O)C(F)(F)F (stereo not given),1%,17,0.5,.,-15,11%,24%
Cn1cc(Br)c(-c2cccc(NC(=O)CC(C)(C)CC(=O)O)c2)n1,-10%,7,-2.3,.,-10,8%,9%
COc1ccc(N2CCN(C(=O)c3ccccc3NS(=O)(=O)c3ccccc3)CC2)cc1,-39%[inhibitor],18,.,28µM*,-2,-19%,10%
CCCn1c(=O)c(C(=O)NCCc2ccccc2)c(O)c2ccccc21,-37%,10,5.4,.,0,4%,-10%
O=C(O)/C=C/C(=O)Nc1ccc(SC(F)(F)C(F)(F)C(F)(F)F)cc1,-11%,2,2.8,0.9%,4,10%,22%
Cc1cc(C)nc(NC(=O)c2ccc(Cl)cc2[N+](=O)[O-])c1,-9%,-14,2.0,-4.1%,-12,10%,-10%
COCCCNC(=O)CCCOc1ccccc1,?,26,-0.1,-0.8%,7,3%,5%
CCOC(=O)C[C@H]1c2ccccc2S(=O)(=O)N1Cc1ccc(Cl)cc1,16%,.,.,4.0%&-0.1%,8,-12%,.
COc1ccc(NS(=O)(=O)c2ccc(C)c(C(=O)N3CCN(Cc4cc(OC)ccc4OC)CC3)c2)cc1,-1%[15.4 µM],.,.,.,-4,?,.
COc1ncnc2c1N=C1CC(C)(C)CC(N)=C1S2,-2%,2,?,0.1%,-11,-26%,45µM*
CN(C)c1cccc(C(=O)N/C=C/n2cnc3cc(C(F)(F)F)ccc32)c1,-27%,4,0.0,-5.5%,6,-13%,9%
O=C(/C=C/c1ccccc1)NNC(=O)c1cccnc1,-7%,5,0.4,1.2%,5,11%,21%
O=C(Cc1ccccc1)NNC(=S)NC(=O)c1cccs1,1%[15.4 µM],-4,-0.4,0.0%,1,4%,12%
Cc1csc2nc(SCC(=O)N3CCN(c4ccccc4)CC3)[nH]c(=O)c12,19%,-12,0.4,0.1%,-11,-2%,-4%
Cc1ccc(OCC(=O)Nc2ccc(N3CCN(S(C)(=O)=O)CC3)cc2)cc1C,26%[15.4 µM],-1,-0.6,.,19,1%,12%
NC(=O)C1CCN(C(=O)COc2cccc3cccnc23)CC1,-21%,3,-11,-18%,.,1%,21%
COc1ccc(C(=O)NCc2cccnc2)cc1,39%,-7,2.1,-1.1%,0,6%,-15%
COC(=O)c1ccc2c(=O)n(CCN3CCOCC3)c(SCC(=O)Nc3ccc(OC)cc3OC)nc2c1,0%,-2,0.9,0.7%,.,?,7%
O=S(=O)(N/N=C\c1cccn1-c1ccccc1)c1ccc2ccccc2c1,-21%,14,0.4,0.7%,-10,?,12%
O=C(OCC(=O)N1CCCC1=O)c1ncc(Cl)c(Cl)c1Cl,-17%[15.4 µM],-10,.,.,15,-18%,.
O=S(=O)(Nc1ccc(-c2cn3c(n2)SCC3)cc1)c1cccs1,?,25,2.6,.,?,-13%,5%
CCCCNC(=O)C1CCC(CNS(=O)(=O)c2ccc(C)cc2)CC1 (stereo not given),4%,-9,2.6,1.6%,-1,9%,8%

# Arranged by the number under Sfp PPTase inh (highest first): four from the list above.
Structure,gsp ag,Menin MLL FP FL,CtBP-E1A blk,gsp antag,Sfp PPTase inh
O=C(/C=C/c1ccccc1)NNC(=O)c1cccnc1,-7%,0.4,5,11%,21%
Cc1ccc(OCC(=O)Nc2ccc(N3CCN(S(C)(=O)=O)CC3)cc2)cc1C,26%[15.4 µM],-0.6,19,1%,12%
Cc1csc2nc(SCC(=O)N3CCN(c4ccccc4)CC3)[nH]c(=O)c12,19%,0.4,-11,-2%,-4%
COc1ccc(C(=O)NCc2cccnc2)cc1,39%,2.1,0,6%,-15%
